YopH inh – YopH (Yersinia) phosphatase inhibition; fluorescence Ex485/Em525; inhibition, %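 (about 10 µM by stock and volumes)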; 140,000 compounds, 0.16% hits; AID 898;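 active means inhibition of 50% or more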;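 further: controls were vehicle for no effect and minimum signal wells for full effect; inactives centre near -20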
Mtb bLac sens – beta-lactam sensitization of Mtb H37Rv; M. tuberculosis H37Rv growth with meropenem, percent inhibition; hits of this screen are not shown here; inhibition, % at 25 µM; 330,000 compounds, 0.27% hits; AID 434955;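 active means about 74% or more and at least 40 points above the plate without the antibiotic, then above 30% in a dose series; inconclusive means first-round hits that could not be retested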;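 further: growth measured after seven days incubation then overnight dye step; 0% = bacteria only wells and 100% = bacteria with antibiotic; twin plates without the antibiotic show which effects depend on it; some results filed as inactive read as strong as hits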
Mtb H37Rv – M. tuberculosis H37Rv growth inhibitors, H37Rv strain (AID 1626) | M. tuberculosis H37Rv growth inhibition; higher % means a stronger effect | 220,000 compounds, 0.95% hits | one-dose inhibition, % at 10 µM; IC50 in µM for titrated hits;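 active means confirmed in a dose series; inconclusive means inhibition above 80% but not taken into the dose series; inactive means below 80% or under 30% at every dose of the series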;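 further: bacteria incubated seven days before Alamar blue readout; 0% = bacteria only wells and 100% = bacteria with antibiotic wells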
Arbovirus inh – blocks arbovirus infection; arbovirus infection cell-based antiviral screen; inhibition, % at 10 µM; 200,000 compounds, 0.37% hits;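 active means inhibition from about 30%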;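 further: bluetongue infection of BSR cells; cell survival read as ATP light after 72 h; 0% = infected wells without compound and 100% = uninfected wells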
RecA splice inh – blocks M. tuberculosis RecA intein splicing; 290,000 compounds, 0.75% hits; AID 2221; inhibition, %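 (about 9 µM by stock and volumes)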; cell-free RecA intein splicing, fluorescence; in the data active means inhibition above about 30%; inconclusive means no clear call, values can overlap the other calls;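 further: 0% = vehicle wells and 100% = reference inhibitor control wells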
Target sequence (P9WHJ3 whole entry, looked up, canonical isoform): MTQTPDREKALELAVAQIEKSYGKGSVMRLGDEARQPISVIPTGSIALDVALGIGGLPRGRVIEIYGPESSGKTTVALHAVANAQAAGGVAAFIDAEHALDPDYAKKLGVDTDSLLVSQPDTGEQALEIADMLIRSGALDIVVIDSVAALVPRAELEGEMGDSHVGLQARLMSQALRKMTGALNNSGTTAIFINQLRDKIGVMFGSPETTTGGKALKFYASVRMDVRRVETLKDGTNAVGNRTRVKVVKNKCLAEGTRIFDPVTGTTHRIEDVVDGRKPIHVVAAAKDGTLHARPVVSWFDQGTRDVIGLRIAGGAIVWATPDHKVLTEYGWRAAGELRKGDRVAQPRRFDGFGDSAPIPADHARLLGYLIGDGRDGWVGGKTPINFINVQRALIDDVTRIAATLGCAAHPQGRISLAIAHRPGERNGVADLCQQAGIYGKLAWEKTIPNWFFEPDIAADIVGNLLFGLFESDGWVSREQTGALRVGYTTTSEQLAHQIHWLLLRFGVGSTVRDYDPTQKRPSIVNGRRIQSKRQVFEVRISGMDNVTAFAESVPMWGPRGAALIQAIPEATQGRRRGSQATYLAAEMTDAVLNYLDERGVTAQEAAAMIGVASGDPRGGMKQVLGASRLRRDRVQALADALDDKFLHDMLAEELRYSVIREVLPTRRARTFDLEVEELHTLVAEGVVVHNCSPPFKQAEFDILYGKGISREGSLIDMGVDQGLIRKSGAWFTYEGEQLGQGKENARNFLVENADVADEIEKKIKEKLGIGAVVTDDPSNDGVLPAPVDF
Arbovirus inh repeat – recorded beside Arbovirus inh, whose call it bears; inhibition, %; measured here: 10K subset replicate screen; many hits read low in the repeat;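 first of two repeat runs on a subset; 0% = infected and 100% = uninfected wells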
Active calls of the source: *; ? = inconclusive; . = no result given. Some of the compounds tested. The share of hits here may be higher or lower than overall.

SMILES | YopH inh | Mtb bLac sens | Mtb H37Rv | Arbovirus inh | RecA splice inh | others
Cc1ccc(N(C(=O)CNC(=O)c2ccco2)C(C(=O)NC2CCCC2)c2cccnc2)cc1F (stereo not drawn) | . | -4 | . | . | 0.5
Cc1ccccc1C(=NCCCN(C)C)c1ccccc1C | -11 | -14 | 8% | 9 | -0.9
COc1ccc(Cl)cc1S(=O)(=O)n1ccnc1C(C)C | -8 | 2 | 2% | -5 | 1.3 | Arbovirus inh repeat=4
COc1ccc2ccccc2c1CNCCCN1CCOCC1 | . | -12 | 11% | 10 | -4.2
Cn1c(=O)c2cc(S(=O)(=O)Nc3ccc4c(c3)OCO4)ccc2n(C)c1=O | -33 | -2 | -1% | -12 | 0.6
O=C(O)CCn1ccc2cc(S(=O)(=O)N3CCCCCC3)ccc21 | . | 5 | . | . | 3.4
O=c1[nH]c(O)c(N=Nc2cc(C(F)(F)F)ccc2Cl)c(=O)[nH]1 | . | 2 | 7% | 10 | 21
COc1cc(C2C(C#N)=C(N)OC3=C2C(=O)CCC3)cc2c1OCO2 (stereo not drawn) | . | 0 | . | . | 0.0
CCc1cccc2c(C#N)cn(CC(=O)NCc3ccco3)c12 | -7 | 2 | 5% | 7 | .
Cc1cccc(NC(=O)CSc2nc3nc4c(cc3c(=O)n2-c2ccccc2)CCCC4)c1 | -28 | 70 | 4% | -11 | 8.3
NC(=O)Nn1c(CCC(=O)O)ccc1-c1ccc(Br)cc1 | -68 | -7 | -16% | -5 | .
CC(C)c1ccc(OCc2nc(-c3ccccn3)no2)c(Br)c1 | -29 | -3 | 2% | -4 | 3.2
CCOC(=O)c1ccc(S(=O)(=O)N2CCN(c3ccccn3)CC2)cc1 | . | 1 | . | . | 1.1
Cc1ccc(-c2csc(NC(=O)c3cccc(N4C(=O)CCC4=O)c3)n2)o1 | . | -1 | 3% | 9 | 2.0
O=C(NC1CCCCCC1)C1CCN(S(=O)(=O)c2cccc3cccnc23)CC1 | -31 | 2 | -6% | -3 | -1.6 | Arbovirus inh repeat=-4
Cc1ccc(C)c(Cn2c(=O)c3c(nc4n3CCN4Cc3ccco3)n(C)c2=O)c1 | -23 | -2 | -3% | -10 | 3.1
CCc1cc(=O)oc2cc(C)cc(OCC(=O)NCc3ccccn3)c12 | . | -4 | . | . | -1.1
O=C(c1ccccc1)N1N=C(C(F)(F)F)CC1(O)c1ccc(F)cc1 (stereo not drawn) | . | 10 | . | . | 7.5
COc1cccc(CN(C)C(=O)c2ccc3c(=O)n4c(nc3c2)CCC4)c1OC | . | 3 | . | . | -2.6
COc1ccccc1CN(CC(=O)NCc1ccco1)C(=O)CNS(=O)(=O)c1ccc(C)cc1 | -33 | -2 | 2% | -3 | 0.5
O=C(O)c1cccc(NN=C2c3ccccc3-c3ccccc32)c1 | . | . | 11% | 69* | -4.9
Cc1noc(/C=C/c2ccco2)c1S(=O)(=O)N1CCC(C(=O)Nc2ccc(Cl)cn2)CC1 | -20 | -3 | 7% | -9 | -1.5
O=C(Nc1ccc(-c2noc(-c3cccs3)n2)cc1)c1cccnc1 | -20 | 24 | 15% | 5 | 0.0
COc1ccc(-c2coc3cc(OC)cc(O)c3c2=O)cc1 | 2 | -3 | . | 1 | -0.5
Cn1nnnc1SCC(=O)Nc1c(Cl)cccc1Cl | -43 | -15 | . | 5 | 2.1
O=P(CCC(F)(F)F)(CCC(F)(F)F)CCC(F)(F)F | 12 | -9 | 5% | 7 | -1.9
Cc1ccccc1CC1(CO)CCCN(C(=O)Cc2c(F)ccc(F)c2F)C1 (stereo not drawn) | . | 4 | . | . | 2.2
O=[N+]([O-])c1cc(/C=N/N2CCCCC2)ccc1Cl | . | -7 | 1% | 1 | .
CC(C)c1c(C(=O)N/N=C/c2ccc(C(F)(F)F)cc2)nnn1-c1nonc1N | . | 8 | . | . | -3.3
Cc1ccc(CNC(=O)CN2C(=O)NC(C)(c3cccc(Br)c3)C2=O)cc1 (stereo not drawn) | . | 0 | . | . | -0.8
COc1cccc(CC(NC(C)=O)C(=O)NC2CCN(c3c(Cc4ccccc4)c(C)nc4ncnn34)CC2)c1 (stereo not drawn) | -8 | -1 | -3% | -2 | 3.3
Cn1cc(C2=C(c3ccc(Cl)cc3Cl)C(=O)NC2=O)c2ccccc21 | . | 2 | . | . | -3.9
O=C(Nc1ccc2c(c1)OCO2)c1ccc(Cl)nc1 | 0 | -7 | 4% | -3 | -0.3
CC1(C)CC2(CCCN(CC(O)(c3ccccc3)c3ccccc3)C2)CCO1 (stereo not drawn) | . | 7 | 2% | . | 5.4
O=C(CCNC(=O)c1ccccc1)OCN1C(=O)c2ccccc2C1=O | 9 | -7 | -9% | 8 | -1.2
Cc1ccc(C(c2nnnn2CC2CCCO2)N2CCN(C(=O)c3ccco3)CC2)cc1 (stereo not drawn) | -3 | -3 | -5% | 5 | 0.4
O=C1/C(=C/c2cccs2)SC(=S)N1c1ccccc1 | -30 | -2 | -7% | 9 | 5.9
Cc1ccccc1S(=O)(=O)Nc1cccnc1 | -32 | 5 | -1% | -3 | -0.3
Cn1cc(C=O)c2ccccc21 | . | 3 | -3% | 2 | 0.9
Cc1[nH]c2ccccc2c1C(=O)C(C)OC(=O)c1ccc([N+](=O)[O-])o1 (stereo not drawn) | . | 100 | 53% | -1 | 3.5
COc1ccc(Cl)cc1S(=O)(=O)N1CCCC1=O | . | 2 | -4% | 18 | 1.2
COc1cccc(CNc2nc3ccc(C)cc3n3cnnc23)c1 | . | -6 | -5% | . | -1.5
COc1ccc(CN2CSC(=S)N(Cc3ccccc3)C2)cc1 | . | 99 | . | . | 12
CCc1c(C(=O)NN2C(=O)C3C4CCC(O4)C3C2=O)csc1C (stereo not drawn) | -38 | 0 | -2% | 5 | -0.5
Cn1cccc1CNC(=O)Nc1ccc(Cl)cc1 | 4 | -20 | -10% | -6 | 2.8
Brc1[nH]nc2ccccc12 | -52 | 0 | 1% | -1 | 0.0 | Arbovirus inh repeat=-7
CCc1c(C(=O)NCc2ccccc2Cl)[nH]c(C)c1C(C)=O | -37 | -7 | -5% | -2 | 1.4
Fc1ccc(/C=N/Nc2cc(N3CCOCC3)ncn2)cc1 | . | -6 | . | . | -1.2
COc1cc(-c2noc(C)c2C#Cc2ccc(N)cc2)cc(OC)c1OC | . | 13 | . | . | -3.4
CC(C(=O)NCCc1ccccc1)N1c2cccc3cccc(c23)S1(=O)=O (stereo not drawn) | . | 5 | . | . | -0.4
CCCn1c(O)c(C=Nc2ccccc2)sc1=S | . | 6 | -5% | -13 | .
COc1ccc(NC(=O)C/C(C)=N/NC(=O)c2ccco2)c([N+](=O)[O-])c1 | . | 54 | . | . | -15
CC(=O)c1ccc(O)c(CC=C(C)C)c1O | . | -9 | 2% | . | 3.7
CCN(C(=O)CN(C)Cc1cccc(Cl)c1Cl)c1c(N)n(Cc2ccccc2)c(=O)[nH]c1=O | -31 | 5 | -4% | 11 | 1.4
O=C(O)c1ccc(CSC2CCCCC2)cc1 | . | -1 | . | . | 0.0
CCCCNC(=O)CC1N=C2c3ccccc3N=C(SCC(=O)Nc3ccccc3OC)N2C1=O (stereo not drawn) | -51 | 2 | 2% | 3 | 1.0
C/C(Cl)=C/Cn1c(SCC(C)C)nc2c1c(=O)[nH]c(=O)n2C | . | -4 | 3% | . | 1.7
O=S1(=O)N=C(N2CCCC2)c2ccccc21 | . | 0 | . | . | 3.1
COCCCNC(=O)CN(c1ccc(OC)cc1)S(=O)(=O)c1ccc(NC(C)=O)cc1 | -19 | -18 | -5% | 4 | 0.9
COc1cc(CN2CCC(n3nccc3NC(=O)C3CC3)CC2)cc(OC)c1 | . | -1 | . | . | 2.9

Random excerpt: 6 entries already listed, in no set order.
SMILES | YopH inh | Mtb bLac sens | Mtb H37Rv | Arbovirus inh | RecA splice inh | others
COc1cc(C2C(C#N)=C(N)OC3=C2C(=O)CCC3)cc2c1OCO2 (stereo not drawn) | . | 0 | . | . | 0.0
Cc1ccc(CNC(=O)CN2C(=O)NC(C)(c3cccc(Br)c3)C2=O)cc1 (stereo not drawn) | . | 0 | . | . | -0.8
COCCCNC(=O)CN(c1ccc(OC)cc1)S(=O)(=O)c1ccc(NC(C)=O)cc1 | -19 | -18 | -5% | 4 | 0.9
O=c1[nH]c(O)c(N=Nc2cc(C(F)(F)F)ccc2Cl)c(=O)[nH]1 | . | 2 | 7% | 10 | 21
COc1cccc(CNc2nc3ccc(C)cc3n3cnnc23)c1 | . | -6 | -5% | . | -1.5
O=C(Nc1ccc2c(c1)OCO2)c1ccc(Cl)nc1 | 0 | -7 | 4% | -3 | -0.3

Remaining list, next part
SMILES | YopH inh | Mtb bLac sens | Mtb H37Rv | Arbovirus inh | RecA splice inh | others
COc1ccc(S(=O)(=O)N2CCC(C(=O)NCCC(=O)NCc3ccccc3OC)CC2)cc1 | . | -2 | . | . | -0.2
COc1ccc(CCNC(=O)CCS(=O)(=O)c2ccc(Br)cc2)cc1OC | . | 0 | -6% | 5 | 0.6
O=C(c1cccnc1)N1CCN(S(=O)(=O)c2ccc(F)cc2)CC1 | . | -1 | -8% | 0 | -4.3
Clc1ccc(-c2nc(-c3cc4cc(Cl)ccc4o3)cs2)cc1 | . | -3 | -5% | . | 3.8
O=C(O)C1=C[C@@H](C2CC2)C[C@@H](OCc2ccc(CO)cc2)O1 | . | -11 | -4% | 3 | -0.7
Fc1ccc(-n2c(CN3CCCCC3)n[nH]c2=S)cc1 | . | 4 | -6% | 5 | -6.9
COc1ccc(C2C(C#N)=C(N)Oc3cc(C)[nH]c(=O)c32)c(OC)c1OC (stereo not drawn) | 5 | -17 | -3% | 4 | -6.1
Cc1ccc(NCC(=O)Nc2cccc(F)c2)cc1S(=O)(=O)N1CCCCCC1 | . | -14 | . | . | 6.5
N#Cc1cc(C(=O)c2ccccc2OCC(=O)Nc2ccccc2Cl)cn(C2CCCCC2)c1=O | -24 | -3 | 8% | -6 | 1.9
O=C(COC(=O)c1cccc(-n2cnnn2)c1)c1ccc(Br)cc1 | . | -15 | . | . | 0.9
Cc1nn(-c2ccccc2)c(C)c1/C=N/NC(=O)c1cc(-c2ccc(Cl)s2)[nH]n1 | -24 | 97 | 19% | -20 | 4.1
CC(=O)c1ccn(S(=O)(=O)c2ccc(Cl)cc2)c1 | . | -9 | -9% | . | 2.2
CC(=O)Oc1ccc2c(c1)c(C(C)=O)c(C)n2C | -22 | 100 | ? | -1 | -0.1
Cc1cccc(N(Cc2cc(=O)[nH]c3ccccc23)C(=O)C(C)C)c1 | . | -3 | 0% | . | 5.0
CCn1c(-c2cccc(Cl)c2)n[nH]c1=S | -36 | 6 | 6% | -2 | -5.6
O=C(/C=C\c1ccco1)Nc1nc(-c2ccc3ccccc3c2)cs1 | -30 | 0 | 11% | 29 | 0.1
CCCCCOc1ccc(/C=C/C(=O)NCCc2nc3ccccc3[nH]2)cc1OC | -37 | 88 | 39% | 0 | 2.2
N#CCC(CNc1ncc(C(F)(F)F)cc1Cl)OC(=O)c1ccc(Cl)cc1 (stereo not drawn) | -33 | 4 | 7% | 3 | 3.4
Cc1ccc(OCC(O)CN2C(=O)NC(C)(C)C2=O)cc1 (stereo not drawn) | -15 | -1 | 7% | 3 | 1.4
COc1ccc(-c2c3c(=O)n(C)c(=O)n(C)c3cn2Cc2ccccn2)cc1 | -29 | -3 | -10% | 6 | -1.3
CC(=O)OCC1=C(C(=O)O)N2C(=O)C(NC(=O)c3ccc(COc4c(C)cccc4Cl)o3)C2SC1 (stereo not drawn) | . | -1 | 1% | -5 | 6.5
Cc1ccc(Cn2ccc(NC(=O)c3cc4nc5c(c(C(F)(F)F)n4n3)CCc3ccccc3-5)n2)cc1 | -38 | . | 1% | -2 | .
COc1ccc(Br)c(C(=O)OCc2cc(=O)oc3cc(C)ccc23)c1 | . | 6 | . | . | -1.8
CC1CCCCN1Cc1nc2c(c(=O)n(C)c(=O)n2C)n1Cc1c(F)cccc1Cl (stereo not drawn) | . | 4 | -6% | 2 | . | Arbovirus inh repeat=-2
CCC(=O)Nc1ccc2oc(-c3ccccc3Br)nc2c1 | -21 | 0 | 16% | -29 | 2.0
CC(=O)c1c(C(C)=O)c(C)n(-c2ccc(C(=O)O)cc2)c1C | -46 | -6 | -3% | 7 | 1.1
COCCn1c(SCc2cc(=O)n3cc(C)ccc3n2)nc2ccccc2c1=O | . | -5 | 9% | 7 | 0.6
COCCCn1c(=O)/c(=C\c2ccccc2OC(F)F)s/c1=C(/C#N)C(=O)NCCOC | . | 20 | -9% | . | -64
S=c1[nH]nc(-c2cc(-c3ccccc3)n[nH]2)n1/N=C/c1cccc(Cl)c1 | . | -11 | -5% | . | 2.1

Assay outcomes deposited in PubChem BioAssay by several laboratories.
